# Vaccinia inh: Vaccinia orthopox stage-specific inhibition. activity change (mCherry), % (no concentration beside the values). Vaccinia-infected cells, mCherry/Venus stage reporter fluorescence; active compounds read low; some inactives read as strong as hits. hit rate 0.01% among 89,000;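 active = mCherry past -33% and 40 or more points under the early reporter, replicates agreeing; inconclusive = past -33% without that gap or agreement; tested in A549 cells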;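 also: scaled between vehicle wells and reference inhibitor wells; 23 nL library stock went into each well; one replicate is shown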
# Vaccinia inh Venus: recorded beside Vaccinia inh, whose call it bears; activity change (Venus), %; measured here: Venus reporter, other viral stage;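 negative = less Venus signal; first of two replicates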
# Starred values were filed as active, the others as inactive; ? = inconclusive; / = not tested or not shown; & = joins results of further samples. A portion of the library; count on the stated rates, not on these rows.
# Value order – Vaccinia inh	Vaccinia inh Venus
[1] C[C@H]1CN([C@@H](C)CO)C(=O)Cc2cc(NS(=O)(=O)c3cccs3)ccc2O[C@@H]1CN(C)CC1CC1
 : -5.4	2.5
[2] CO[C@H]1CN(C)C(=O)c2ccc(NC(=O)C3CC3)cc2OC[C@@H](C)N(Cc2ccc(F)cc2)C[C@H]1C
 : -9.1	-2.7
[3] C[C@@H]1CN([C@H](C)CO)C(=O)c2cc(-c3cncnc3)cnc2O[C@H]1CN(C)C(=O)Cc1ccccc1
 : 9.0	5.0
[4] O=S(=O)(N[C@@H]1CC[C@H](CCn2cc(-c3ccccc3F)nn2)O[C@@H]1CO)c1ccc(F)cc1
 : 2.4	-15.3
[5] O=C(c1ccccc1)N1C[C@H]2[C@@H](c3ccccc31)[C@@H](CO)N2Cc1cc(F)ccc1F
 : 2.1	0.4
[6] C[C@H](CO)N1C[C@H](C)[C@@H](CN(C)C(=O)Nc2ccc(F)cc2)OCCCC[C@H](C)Oc2ccc(NC(=O)C3CCCCC3)cc2C1=O
 : -12.3	-8.6
[7] O=C(c1cnccn1)N1CC[C@@H]2[C@H]1c1cc(-c3cccc(F)c3)ccc1N[C@@H]2CO
 : -10.7	-4.6
[8] Cc1ccc(-c2ccc3c(c2)O[C@H](CN(C)C(=O)CN(C)C)[C@@H](C)CN([C@@H](C)CO)S3(=O)=O)cc1
 : ?	/
[9] C[C@@H]1CCCCO[C@H](CN(C)C(=O)Nc2ccccc2)[C@H](C)CN([C@H](C)CO)C(=O)c2cc(NC(=O)CCC(F)(F)F)ccc2O1
 : 5.0	8.2
[10] O=C(C[C@@H]1CC[C@H]2[C@@H](COC[C@H](O)CN2C(=O)Nc2cc(Cl)cc(Cl)c2)O1)N1CCOCC1
 : -10.3	4.2
[11] C[C@H](CO)N1C[C@H](C)[C@H](CN(C)C(=O)c2cccnc2)Oc2ncc(-c3ccc(F)cc3)cc2C1=O
 : 12.5	7.0
[12] O=C(C[C@@H]1CC[C@@H](NC(=O)C2CC2)[C@@H](CO)O1)Nc1ccccc1
 : -6.8	-8.2
[13] C/C=C/c1ccc2c(c1)O[C@H](CN(C)S(=O)(=O)c1ccccc1OC)[C@H](C)CN([C@@H](C)CO)S2(=O)=O
 : -12.9	-8.6
[14] COc1ccc(NC(=O)N(C)C[C@@H]2Oc3ccc(NS(C)(=O)=O)cc3C(=O)N([C@@H](C)CO)C[C@H]2C)cc1
 : 1.6	3.6
[15] C[C@@H]1CN([C@@H](C)CO)C(=O)c2cc(NC(=O)CCC(F)(F)F)ccc2O[C@@H]1CN(C)Cc1ccc2c(c1)OCO2
 : -4.7	-0.4

# Values in list order from the entries so far:
# Nos. 2–13 in Vaccinia inh Venus read -2.7, 5.0, -15.3, 0.4, -8.6, -4.6, /, 8.2, 4.2, 7.0, -8.2, -8.6
# Nos. 2–13 in Vaccinia inh read -9.1, 9.0, 2.4, 2.1, -12.3, -10.7, ?, 5.0, -10.3, 12.5, -6.8, -12.9

# Back to the main list, starting 2 compounds before the break.
# Value order – Vaccinia inh	Vaccinia inh Venus
[14] COc1ccc(NC(=O)N(C)C[C@@H]2Oc3ccc(NS(C)(=O)=O)cc3C(=O)N([C@@H](C)CO)C[C@H]2C)cc1
 : 1.6	3.6
[15] C[C@@H]1CN([C@@H](C)CO)C(=O)c2cc(NC(=O)CCC(F)(F)F)ccc2O[C@@H]1CN(C)Cc1ccc2c(c1)OCO2
 : -4.7	-0.4
[16] C[C@H](CO)N1C[C@H](C)[C@@H](CN(C)C)Oc2cc(-c3ccc(C#N)cc3)ccc2S1(=O)=O
 : -3.0	-1.5
[17] O=C(C[C@@H]1C[C@H]2c3cc(NC(=O)c4ccc5c(c4)OCO5)ccc3O[C@H]2[C@@H](CO)O1)NCCN1CCCCC1
 : 8.4	14.0
[18] C[C@H](CO)N1C[C@H](C)[C@H](CN(C)Cc2ccc(C(F)(F)F)cc2)Oc2ccc(NC(=O)Cc3cn(C)c4ccccc34)cc2CC1=O
 : -15.4	-6.4
[19] O=C(CCN1CCCCC1)NCC[C@H]1CC[C@H](NC(=O)Cc2cccnc2)[C@@H](CO)O1
 : -1.6	-7.9
[20] COc1ccc(NC(=O)Nc2ccc3c(c2)C(=O)N([C@@H](C)CO)C[C@@H](C)[C@@H](CN(C)C(=O)Nc2ccccc2)O3)cc1
 : 2.1	6.3
[21] O=C(NCC[C@H]1CC[C@@H](NC(=O)C2CCCC2)[C@@H](CO)O1)c1ccc(F)cc1
 : -4.1	-6.4
[22] COCC(=O)NC[C@H]1[C@H](c2ccccc2)[C@@H](CO)N1C(C)=O
 : 15.0	14.7
[23] CC(C)(C)S(=O)N1Cc2cc(C(=O)Nc3ccc(-c4ccccc4)cc3)nc(-c3cccc(-c4cccc(F)c4)c3)c2[C@@H]1CCO (stereo partly drawn)
 : 18.5	24.6
[24] O=C(N[C@@H]1CC[C@@H](CC(=O)N2CCCCC2)O[C@H]1CO)c1ccccn1
 : 2.9	-6.7
[25] COc1ccc(NC(=O)N[C@@H]2CC[C@@H](CCNC(=O)CCN3CCCCC3)O[C@@H]2CO)cc1
 : -3.0	1.8
[26] O=C(NCC[C@@H]1CC[C@@H](NS(=O)(=O)c2ccc(F)cc2)[C@@H](CO)O1)c1ccccc1F
 : -8.8	-2.6
[27] CCCN1C[C@H](C)[C@H](OC)CN(C)C(=O)c2ccc(NC(=O)c3cccc(F)c3)cc2OC[C@@H]1C
 : -16.0	-6.1
[28] O=C(NC[C@H]1CC[C@H]2[C@H](CN2S(=O)(=O)c2ccccc2[N+](=O)[O-])O1)Nc1ccccc1
 : -9.0	0.4
[29] C[C@@H]1CN([C@H](C)CO)C(=O)Cc2cc(NC(=O)Nc3ccc4c(c3)OCO4)ccc2O[C@@H]1CN(C)CC1CCCCC1
 : -27.6	-13.6
[30] C[C@@H]1CN([C@@H](C)CO)C(=O)c2cc(NC(=O)NC3CCCCC3)ccc2O[C@H]1CN(C)S(=O)(=O)c1cccs1
 : 3.5	2.4
[31] Cc1noc(C)c1S(=O)(=O)Nc1ccc2c(c1)CC(=O)N([C@H](C)CO)C[C@@H](C)[C@@H](CN(C)S(=O)(=O)c1ccc(F)cc1)O2
 : 1.7	-5.6
[32] C[C@H]1CCCCO[C@H](CN(C)S(=O)(=O)c2ccc(F)cc2)[C@@H](C)CN([C@@H](C)CO)C(=O)c2cc(NS(=O)(=O)c3cn(C)cn3)ccc2O1
 : 8.7	11.8
[33] C/C=C/c1ccc(C2[C@@H]3CN(Cc4cccnc4)C[C@H]2N3)cc1 (stereo partly drawn)
 : 16.4&-12.5	7.2&-15.9
[34] CC=Cc1ccc2n(c1=O)C[C@H]1[C@H](CO)[C@@H](C(=O)N3CCCCC3)N(Cc3ccccc3)[C@@H]21 (mixture of isomers)
 : -1.5	5.6
[35] CN(C)C(=O)c1ccc(-c2ccc([C@H]3[C@H]4CN(C(=O)CC5CC5)CC(=O)N4[C@H]3CO)cc2)cc1
 : 15.7	8.1
[36] Cc1noc(C)c1NC(=O)N(C)C[C@H]1Oc2ccc(NS(=O)(=O)c3ccc(F)cc3)cc2CC(=O)N([C@H](C)CO)C[C@H]1C
 : -5.4	16.4
[37] CN(C)CC(=O)N[C@@H]1CC[C@@H](CCn2cc(C3CCCCC3)nn2)O[C@@H]1CO
 : -4.3	5.4
[38] C[C@@H]1CCCCO[C@@H](CN(C)C(=O)c2ccncc2)[C@H](C)CN([C@@H](C)CO)C(=O)c2cc(NC(=O)Cc3ccccc3)ccc2O1
 : 18.0	4.0
[39] CCN1[C@@H]2c3ccc(C4=CCCCC4)c(=O)n3C[C@H]1[C@H](CO)[C@H]2C(=O)N1CCc2ccccc2C1
 : 16.6	5.0
[40] CCNC(=O)C[C@H]1CC[C@H]2[C@@H](COc3ccc(NC(=O)c4cccc(OC)c4)cc3C(=O)N2C)O1
 : 9.5	1.8
[41] C[C@H]1CN([C@@H](C)CO)C(=O)Cc2cc(NC(=O)CCC(F)(F)F)ccc2O[C@@H]1CN(C)C(=O)NC1CCCCC1
 : -2.2	6.0
[42] Cc1noc(C)c1NC(=O)Nc1cccc2c1O[C@H](CN(C)C(=O)Nc1cccc3ccccc13)[C@@H](C)CN([C@H](C)CO)C2=O
 : 12.5	18.5
[43] C/C=C/c1ccc([C@H]2[C@@H](CO)N(S(C)(=O)=O)C23CN(C(=O)CC)C3)cc1
 : 7.2	5.4
[44] O=C(N[C@H]1CC[C@H](CCn2cc(C3(O)CCCC3)nn2)O[C@H]1CO)c1ccccc1F
 : -15.9	-9.1
[45] CCCNC(=O)C[C@@H]1CC[C@H]2[C@@H](COc3ccc(NC(=O)NC(C)C)cc3C(=O)N2C)O1
 : 5.1	-1.1
[46] Cc1ccc(S(=O)(=O)N(C)C[C@@H]2OCCCC[C@H](C)Oc3ccc(NC(=O)CCCN(C)C)cc3C(=O)N([C@@H](C)CO)C[C@H]2C)cc1
 : -7.0	-12.6
[47] COc1ccc(-c2cnc3c(c2)C(=O)N([C@H](C)CO)C[C@H](C)[C@H](CN(C)C(=O)NC2CCCC2)O3)cc1
 : 8.7&-3.4	-2.0&-2.9
[48] C[C@@H]1CN([C@H](C)CO)S(=O)(=O)c2ccc(C3=CCCCC3)cc2O[C@H]1CN(C)C(=O)c1ccccc1
 : ?	/
[49] CCC(=O)N1CC2(C1)CN(S(C)(=O)=O)[C@H](CO)c1c2c2ccc(OC)cc2n1C
 : 7.5	4.4
[50] COc1ccc(-c2ccc([C@H]3[C@@H](C#N)N(C(=O)C4CC4)[C@@H]3CO)cc2)cc1
 : -15.8	-12.2
[51] COc1ccc(NC(=O)N[C@H]2CC[C@H](CCNS(=O)(=O)c3ccccc3F)O[C@H]2CO)cc1
 : -13.0	-3.1
[52] O=C(C[C@@H]1CC[C@H]2NC[C@@H](O)COC[C@@H]2O1)NCCN1CCCC1
 : 13.5	15.1
[53] O=C(C1CCC1)N1C[C@H]2[C@@H](c3ccccc31)[C@H](CO)N2C(=O)c1ccccc1F
 : 0.4	9.2
[54] C[C@@H]1CCCCO[C@@H](CN(C)Cc2ccccc2)[C@@H](C)CN([C@H](C)CO)C(=O)c2cc(N(C)C)ccc2O1
 : -7.1&17.8	2.1&-1.5
[55] O=C(C[C@@H]1C[C@@H]2c3cc(NC(=O)c4ccc5c(c4)OCO5)ccc3O[C@@H]2[C@H](CO)O1)NCC(F)(F)F
 : 7.6	11.7
[56] CCC(=O)N1C[C@H](C)[C@@H](OC)CN(C)C(=O)c2cc(NS(C)(=O)=O)ccc2OC[C@H]1C
 : 12.8	6.0
[57] C[C@@H]1CCCCO[C@@H](CN(C)C(=O)c2ccccc2)[C@@H](C)CN([C@H](C)CO)C(=O)c2cc(NC(=O)CCCCCC(=O)Nc3ccccc3N)ccc2O1
 : 22.4	26.2
[58] C[C@@H]1CN([C@H](C)CO)C(=O)c2cc(C#C[C@@H](C)O)cnc2O[C@H]1CN(C)C(=O)CN1CCOCC1
 : 6.0	0.7
[59] C[C@H]1CN([C@@H](C)CO)C(=O)Cc2cc(NC(=O)C3CC3)ccc2O[C@@H]1CN(C)C(=O)NC1CCCCC1
 : 6.7	-0.3
[60] COc1ccc(NC(=O)Nc2ccc3c(c2)CC(=O)N([C@H](C)CO)C[C@@H](C)[C@H](CN(C)C(=O)Nc2ccc(OC)cc2)O3)cc1
 : 1.2	3.8

# Pulled one by one from the entries so far (4):
# Value order – Vaccinia inh	Vaccinia inh Venus
[21] O=C(NCC[C@H]1CC[C@@H](NC(=O)C2CCCC2)[C@@H](CO)O1)c1ccc(F)cc1
 : -4.1	-6.4
[46] Cc1ccc(S(=O)(=O)N(C)C[C@@H]2OCCCC[C@H](C)Oc3ccc(NC(=O)CCCN(C)C)cc3C(=O)N([C@@H](C)CO)C[C@H]2C)cc1
 : -7.0	-12.6
[29] C[C@@H]1CN([C@H](C)CO)C(=O)Cc2cc(NC(=O)Nc3ccc4c(c3)OCO4)ccc2O[C@@H]1CN(C)CC1CCCCC1
 : -27.6	-13.6
[12] O=C(C[C@@H]1CC[C@@H](NC(=O)C2CC2)[C@@H](CO)O1)Nc1ccccc1
 : -6.8	-8.2

# Other records
# Value order – Vaccinia inh	Vaccinia inh Venus
[61] COc1cccc(NC(=O)N(C)C[C@@H]2Oc3cc(-c4ccccc4OC)ccc3S(=O)(=O)N([C@H](C)CO)C[C@H]2C)c1
 : -24.5	-17.7
[62] C[C@H](CO)N1C[C@H](C)[C@@H](CN(C)Cc2ccc3c(c2)OCO3)OCCCC[C@H](C)Oc2ccc(NS(=O)(=O)c3ccc(F)cc3)cc2C1=O
 : ?	/
[63] COc1ccc(CN(C)C[C@H]2Oc3ccc(NS(=O)(=O)c4ccc(F)cc4)cc3C(=O)N([C@H](C)CO)C[C@@H]2C)cc1
 : 11.3	-1.8
[64] COc1ccc(NC(=O)N(C)C[C@H]2Oc3ccc(NC(=O)c4ccncc4)cc3CC(=O)N([C@@H](C)CO)C[C@H]2C)cc1
 : 12.6	5.0

# Screening results (PubChem BioAssay)
